# From PubChem BioAssay
# miR-21 FLuc: qHTS Assay for Modulators of miRNAs and/orActivators of miR-21. HeLa miR-21 FLuc reporter, luciferase, 48 h. Potency, µM (highest dose often 38.3 µM), for inactives: top-dose reporter change, positive = more light. 340,000 tested, under 10 active. AID 2288, 2010; active = well fitted rising curve with a large enough effect; inconclusive = small, poorly fitted or top-dose-only effect; inactive = no such curve, though single readings can be large or run the other way;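 note: % of control where 0% means no effect; miR-21 action dims this reporter so a rising signal means less miR-21 action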
#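 HeLa cells stably expressing CMV-driven firefly luciferase with a downstream miR-21 binding sequence, endogenously expressing miR-21, were treated with titrations (up to about 40uM final) for 48 hours at 37 degree Celsius. Luciferase luminescence was read after lysis.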
# GLA inh pH 4.5: qHTS Assay for Inhibitors of Human alpha-Galactosidase at pH 4.5; Alpha-galactosidase A (Homo sapiens), P06280; purified enzyme, 4-MU-alpha-Gal fluorescence, pH 4.5; activity change, negative = inhibition, % at 105 µM; 230,000 tested, under 10 active; AID 1467, 2008; inconclusive = small, poorly fitted or top-dose-only inhibition, or a rising curve; inactive = flat fitted curve, though single readings scatter; no compound was filed as active;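 note: 0% = full activity with enzyme and -100% = basal without enzyme; dose as in the result columns while the protocol names 77 µM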
# Target sequence (P06280 whole entry, looked up): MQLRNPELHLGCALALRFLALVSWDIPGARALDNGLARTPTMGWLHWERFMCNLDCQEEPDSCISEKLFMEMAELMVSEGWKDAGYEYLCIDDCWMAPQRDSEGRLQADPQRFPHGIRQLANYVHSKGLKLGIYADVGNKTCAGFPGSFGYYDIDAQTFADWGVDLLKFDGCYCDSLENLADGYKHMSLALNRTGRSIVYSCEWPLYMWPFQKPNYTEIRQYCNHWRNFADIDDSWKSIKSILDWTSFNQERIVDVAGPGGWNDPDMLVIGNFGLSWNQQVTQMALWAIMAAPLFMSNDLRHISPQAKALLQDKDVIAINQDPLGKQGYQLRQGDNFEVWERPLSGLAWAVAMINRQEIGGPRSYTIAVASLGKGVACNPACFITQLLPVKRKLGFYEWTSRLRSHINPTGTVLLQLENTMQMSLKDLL
# Rango dissoc inh: qHTS Assay for Inhibitors of RanGTP induced Rango (Ran-regulated importin-beta cargo) - Importin beta complex dissociation; Snurportin-1 (Homo sapiens) + GTP-binding nuclear protein Ran (Homo sapiens) + Importin …; Biochemical FRET Rango-importin beta, RanGTP-induced dissociation; Potency, µM (doses to about 46.1 µM), inactives show at the top dose activity change, negative = inhibition; actives 0.071% (n = 340,000); AID 540253, 2011; active means falling FRET ratio curve, often poorly fitted, with flat reads before Ran was added; inconclusive means other falling curves, or compound fluorescence or quenching; inactive means flat or rising ratio curve;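 note: potency is the fitted concentration of half-maximal effect; % of control where 0% means no effect; nearly all actives have a fitted effect of over 45% in size; -100% = wells without RanGTP and RCC1; the record marks most hits as doubtful in a second field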
#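 FRET read at 45 min, room temperature: inhibitors block the CFP/YFP signal rise when RanGTP (0.6 uM Ran, 2 mM GTP, 0.2 uM RCC1) frees Rango (0.1 uM) from importin beta (0.25 uM). Pre-read after 5 min compound exposure flags interference.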
# Rango complex inh: qHTS Assay for Inhibitors of Rango (Ran-regulated importin-beta cargo) - Importin beta complex formation; Importin subunit beta-1 (Homo sapiens), Q14974; actives 0.031% (n = 340,000); Rango CFP/YFP FRET sensor + importin beta, 45 min; Potency, µM (series often up to 92.2 µM), without a hit: top-dose inhibition of complex formation; active = rising FRET ratio curve, often small or poorly fitted; inconclusive = mostly compound fluorescence or quenching in the first reads; inactive = flat curves in all reads;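 note: potency is the fitted concentration of half-maximal effect; 0% = DMSO wells and 100% = buffer wells lacking importin beta; nearly all actives have a fitted effect of over 15% in size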
#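 FRET biosensor (snurportin 1 IBB flanked by EYFP and cerulean), 50 nM, with compound 5 min, then 0.125 microM importin beta in PBS, 1 mM DTT, 0.02% Tween-20, 0.1% BSA. CFP/YFP ratio read after 45 min at room temperature; pre-read flags interference.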
# Numbers without * were called inactive; ? = inconclusive; . = no result given; & = joins results of further samples.
# Preview:
SMILES,miR-21 FLuc,GLA inh pH 4.5,Rango dissoc inh,Rango complex inh
C=CCNC(=O)CN(Cc1ccccc1)S(=O)(=O)c1ccccc1,-4%,.,15%,0.2%
CCC(c1nnnn1Cc1ccc2c(c1)OCO2)N1CCN(c2ccccc2)CC1 (stereo not given),2%,-6,-18%,-0.9%
CC(=O)c1ccccc1N(C(=O)c1ccco1)C(C(=O)NC1CCCC1)c1ccc(N2CCOCC2)cc1 (stereo not given),0%,-11,-3%,-1.0%
C/C(=N\OCC(=O)Nn1c(=O)[nH]c2ccccc2c1=O)c1cccs1,0%,-2,-11%,-0.1%
COc1cccc(NC(=O)Nc2nnc(Cc3ccccc3F)s2)c1,-1%,.,0%,0.0%
O=C(Nc1ccc2nc(-c3ccco3)[nH]c2c1)c1ccco1,-37%,-9,1%,-1.4%
COC(=O)c1ccc(/C=N/NC(=O)C(=O)N2CCCCCC2)cc1,2%,.,39%,3.2%

# The listing, repeating the preview:
SMILES,miR-21 FLuc,GLA inh pH 4.5,Rango dissoc inh,Rango complex inh
C=CCNC(=O)CN(Cc1ccccc1)S(=O)(=O)c1ccccc1,-4%,.,15%,0.2%
CCC(c1nnnn1Cc1ccc2c(c1)OCO2)N1CCN(c2ccccc2)CC1 (stereo not given),2%,-6,-18%,-0.9%
CC(=O)c1ccccc1N(C(=O)c1ccco1)C(C(=O)NC1CCCC1)c1ccc(N2CCOCC2)cc1 (stereo not given),0%,-11,-3%,-1.0%
C/C(=N\OCC(=O)Nn1c(=O)[nH]c2ccccc2c1=O)c1cccs1,0%,-2,-11%,-0.1%
COc1cccc(NC(=O)Nc2nnc(Cc3ccccc3F)s2)c1,-1%,.,0%,0.0%
O=C(Nc1ccc2nc(-c3ccco3)[nH]c2c1)c1ccco1,-37%,-9,1%,-1.4%
COC(=O)c1ccc(/C=N/NC(=O)C(=O)N2CCCCCC2)cc1,2%,.,39%,3.2%
Cc1ccc(C(=O)C2CCN(S(=O)(=O)c3c(C)noc3C)CC2)cc1,-4%,-12,4%,2.2%
CC(C)n1cc(C(=O)c2ccccc2O)cc(C#N)c1=O,-9%,5,-15%,?
COC(=O)[C@@H]1C[C@H]1[C@@H](NC(=O)c1ccccc1)c1ccccc1,-1%,-2&-3,1%,-3.8%
O=S(=O)(c1ccccc1)N1CCCC1c1nc2ccccc2s1 (stereo not given),19%,-1,14%,1.0%
CC(C)CC(=O)Nc1ccccc1N1CCOCC1,-5%,-7,6%,6.3%
O=C(COC(=O)Cc1ccccc1[N+](=O)[O-])NCc1ccc(F)cc1,0%,5,0%,5.2%
O=C(Nc1ccc(C(=O)N2CCCCC2)cc1)c1cccc([N+](=O)[O-])c1,0%,.,-1%,0.8%
COc1ccccc1CNC(=O)c1cc(-c2ccccc2C)nn1CC1CC(c2cccnc2)=NO1 (stereo not given),.,.,-13%,-2.2%
CCc1c(C(=O)Nc2ncn(Cc3cccc(C)c3)n2)csc1C,-9%,-4,9%,-2.7%
CCN1CCN(c2ccc(S(=O)(=O)N3CCCCC3)cc2NC(=O)/C=C/c2ccc(Cl)cc2)CC1,.,.,3%,2.3%
O=C(CCS(=O)(=O)c1ccccc1)N(CCCN1CCOCC1)c1nc2ccc(F)cc2s1,.,.,1%,-0.5%
COc1ccccc1C(=O)NCC(=O)OCC(=O)N(CC(C)C)c1c(N)n(Cc2ccccc2)c(=O)[nH]c1=O,.,.,5%,-1.2%
O=C(NCCN1CCOCC1)c1ccccc1N1C(=O)[C@@H]2Cc3c([nH]c4ccccc34)C(c3ccccc3)N2C1=O (stereo not given in full),7%,.,-30%,?
Cc1ccc(Nc2c([N+](=O)[O-])c(=O)oc3ccccc23)cc1C,-1%,-30,14%,-3.5%
COc1ccccc1NC(=O)CCSCCC(=O)Nc1ccccc1OC,-13%,21,-20%,-0.5%
CC(=O)N(C(C)=O)c1c(N2CCCC2)c2ccccc2oc1=O,-4%,-4,0%,0.7%
O=C(Cc1ccc(Cl)cc1)NC(=S)Nc1ccccc1O,-1%,.,-2%,-0.2%
Cc1c(OCC(=O)N2CCC(C(N)=O)CC2)ccc2c1oc(=O)c1ccccc12,-4%,.,-5%,-2.8%
CCNS(=O)(=O)c1ccc(NC(=S)NCC2CCCO2)cc1 (stereo not given),0%,-9,1%,1.8%
CCOC(=O)C1=C(CC)OC(N)=C(C#N)C1c1ccc(OC)c(C)c1OC (stereo not given),-11%,4,?,-2.9%
COc1ccc(CCNC(=O)CSc2nc(N)cc(=O)[nH]2)cc1OC,8%,5,3%,0.8%
Cc1ccc(SCCNC(=S)Nc2cc(C)cc(C)c2)cc1,-1%,-4,-9%,0.3%
CCC(=O)Nc1ccc(Cl)c(NC(=S)NC(=O)c2cc3ccccc3o2)c1,-30%,5,1%,3.8%
Cc1cc(Br)ccc1OCCN1CCCC1,-7%,.,-10%,-0.5%
Cc1ccc(/C=C/S(=O)(=O)NCC(=O)OCC(=O)Nc2ccc(C(=O)N(C)C)cc2)cc1,.,.,10%,-3.9%
Cc1ccn(C(=O)c2cc3ccccc3oc2=O)n1,-5%,2,.,.
CN1CCN(S(=O)(=O)c2ccc(N3CCc4ccccc4C3)nc2)CC1,-2%,-12,4%,-0.3%
CC(C)NS(=O)(=O)c1ccc(NC(=O)C(C)OC(=O)CCC2CCCC2)cc1 (stereo not given),.,.,8%,4.3%
O=C(CCc1nc(-c2ccccc2)no1)Nc1cccc(C(=O)NC2CC2)c1,.,.,16%,1.0%
FC(F)(F)c1cnc2c(-c3ccc(Cl)cc3Cl)noc2c1,0%,-9,1%,0.4%
O=C1N=C(N2CCOCC2)S/C1=C/c1ccc(-c2ccccc2Cl)o1,-8%,-6,?,?
CC(C)(C)c1ccc(OCc2cnc(Cl)s2)cc1,-38%,3,1%,-0.2%
C=CCOc1ccccc1CNc1ccc2[nH]c(=O)[nH]c2c1,3%,-8,-3%,-1.2%
O=S(=O)(c1cccc(S(=O)(=O)N2CCCC2)c1)N1CCCCC1,-4%,.,-5%,1.1%
C/C(CC(=O)Nc1ccccn1)=N\NC(=O)C(=O)Nc1cccc(C)c1,-8%,1,1%,-0.9%
COc1ccc(C(=O)NNC(=O)CCc2ccccc2OC)cc1,8%,.,-7%,0.1%
COc1ccc(/C=N/N=C2\SC(CC(=O)O)C(=O)N2c2ccccc2)c(OC)c1 (stereo not given),-17%,-18,18%,1.5%
COc1cccc(CNC(=O)c2ccc3c(c2)S(=O)(=O)N=C2CCCCCN23)c1,-7%,.,-10%,-1.1%
CC(NC(=O)COC(=O)C1CSC2(C)CCC(=O)N12)C12CC3CC(CC(C3)C1)C2 (stereo not given),-27%,8,0%,2.9%
O=C(O)C(=O)Cc1c[nH]c2ccccc12,-13%,-6,?,?
[O-]/C(=C(\C(=S)Nc1ccc(SC(F)F)cc1)[n+]1cccc(CO)c1)c1ccc(Cl)s1,-12%,-5,-2%,-3.5%
CC(=O)N1CCN(C(=O)c2cccc(S(=O)(=O)N3c4ccccc4CC3C)c2)CC1 (stereo not given),.,.,-5%,0.2%
O=C(Nc1nnc(CSCc2ccc(F)cc2)s1)c1cccc([N+](=O)[O-])c1,0%,0,25%,-1.3%

# Additional entries follow:
SMILES,miR-21 FLuc,GLA inh pH 4.5,Rango dissoc inh,Rango complex inh
Oc1ccc(-c2nnc(-c3ccc(O)cc3)nn2)cc1,17%,-8,-12%,-2.5%
CCC(Oc1ccccc1OC)C(=O)N1CC(=O)Nc2ccccc21 (stereo not given),2%,.,27%,2.7%
CC(=O)N/C(=C\c1ccccc1)C(=O)OC(C)C(=O)c1ccccc1 (stereo not given),.,.,-21%,-0.1%
Nc1nc2n(n1)C(c1ccc(Cl)cc1)CC(c1ccc(F)cc1)N2 (stereo not given),-8%,-3,-8%,-11%
CN(CC(=O)NC1CCCc2ccccc21)C1CCCCC1 (stereo not given),-5%,-6,-2%,-4.5%
Cc1cc(NC(=O)CSc2nc(C(C)C)nc3c2c(=O)n(C)c(=O)n3C)no1,1%,-12,5%,1.5%
O=C(O)/C(=C\c1ccccc1)c1ccccc1,-2%,2,-15%,5.7%
COc1ccccc1CNC(=O)[C@H](C)NC(=O)C1CCN(C(=O)[C@@H](N)CCSC)CC1,0%,.,3%,-2.6%
Cc1ccccc1C(=O)Nc1ccc(S(=O)(=O)N2CCN(C)CC2)cc1,-7%,-5,14%,-3.2%
O=C(NC1(C(F)(F)F)C(=O)Nc2c1c(=O)[nH]c(=O)n2Cc1ccccc1)c1ccco1 (stereo not given),0%,5,-18%,?
Cc1cccc(C)c1NC(=O)Cn1nc(C)n2cccc2c1=O,1%,.,0%,-0.6%
O=c1cc(-c2ccccc2)oc2ccc(Cl)cc12,.,.,-8%,-1.8%
O=C(c1cc2nc(-c3ccccc3)cc(C(F)(F)F)n2n1)N1CCCC1,.,.,-22%,4.1%
C/C(N)=C(/C#N)C(=O)COc1ccc(Cl)cc1Cl,-43%,-10,15%,-1.2%
Fc1cccc(CSc2ccc(-c3ccc4c(c3)OCO4)nn2)c1,-28%,1,-20%,-1.9%
Cc1cccc(CN2CCN(CCCc3ccccc3)CC2)c1,-1%,1,.,.
COC(=O)c1cc2occc2n1Cc1nc(-c2ccccc2C)oc1C,-1%&-5%,2,-13%,4.8%
COc1ccc(OC2C(=O)N(c3ccc(F)cc3)C2c2ccc(OC)c(OC)c2)cc1 (stereo not given),-4%,0,3%,-2.2%
CC(C)CC(NC(N)=O)C(=O)NCCc1ccc(Cl)cc1Cl (stereo not given),-3%,-9,-11%,0.9%
COc1ccc(S(=O)(=O)Cc2ccc(C(=O)NCc3cccnc3)o2)cc1,15%,-3,14%,-1.1%
CC1CCC(CN2C(Nc3ccccc3)=NC[C@@H]2Cc2ccccc2)CC1 (stereo not given in full),.,.,7%,0.0%
CCc1ccc(S(=O)(=O)N/N=C\c2ccc3c(c2)OCO3)cc1,-5%,.,-3%,3.1%
N#Cc1nc(COc2ccc(F)cc2)oc1N1CCN(Cc2ccccc2)CC1,-3%,-5,7%,-0.1%
CCOC(=O)CNC(=O)CSc1nnc(Cn2c(=O)sc3ccccc32)n1C,2%,2,-15%,5.0%
O=C(NCc1ccc(Cl)cc1)c1cccc(NC2=NC3CS(=O)(=O)CC3S2)c1 (stereo not given),-4%,.,-8%,-0.6%
CCN(CC)S(=O)(=O)c1ccc(OC)c(NC(=O)c2ccc(N3CCCC3=O)cc2)c1,.,.,13%,3.9%
Cc1ccc(Cn2ccc(NC(=O)c3cc(-c4cccc(Cl)c4)on3)n2)cc1,-3%,4,-3%,-2.7%
CCCCCCOc1ccc(N2C(=O)CC(N3CCC(C(=O)OCC)CC3)C2=O)cc1 (stereo not given),-3%,-1,-2%,2.6%
O=c1c2cnn(-c3ccccc3)c2ncn1Cc1ccccc1,-4%,0,-26%,1.0%
O=C(NCCC(=O)N1CCC2(CC1)NCCc1[nH]cnc12)c1ccc(Br)cc1,1%,.,8%,0.5%
CS(=O)(=O)Nc1cccc(S(=O)(=O)N2CCN(C(=O)c3ccccc3)CC2)c1,1%,3,9%,2.1%
CC(=O)Nc1ccc(S(=O)(=O)NCc2nnnn2-c2ccc(Cl)cc2)cc1,.,.,0%,1.1%
Cc1cc([N+](=O)[O-])ccc1NC(=O)CCC(=O)N1CCCC1,-3%,.,-9%,-0.6%
COc1ccc(OC)c(NC(=O)CSc2nnc(CNc3ccc(F)cc3)o2)c1,0%,-2,-4%,-0.1%
CS(=O)(=O)Nc1ccccc1C(=O)Nc1ccccc1Cl,-5%,-13,9%,4.6%
FC(F)Oc1ccc(N=C2SCC3CCCCN23)cc1 (stereo not given),-39%,.,7%,-1.0%
O=C(NCCN1CCOCC1)c1cccc(NS(=O)(=O)c2ccc(Br)cc2)c1,.,.,-2%,4.1%
Cc1cccc(OCC(=O)NCc2ccccc2)c1,-7%,.,8%,0.4%

# This is a subset; rates above refer to the full screens.
